Source: PubChem (ICCB-Longwood Screening Facility, Harvard Medical School)
BasE inh – BasE siderophore enzyme inhibitors, primary screen, biochemical, Acinetobacter baumannii ATCC 17978, fluorescence polarization; purified BasE, fluorescence polarization binding displacement; inhibition, % (no concentration beside the values); hit rate 0.1% among 84,000; AID 485350, 2010;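 active = both replicates above 25% with normal brightness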;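 note: 0% = negative plate control signal and 100% = positive plate control signal; stock transfer was 100 nL into about 30 µL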
KSHV LANA nucl – inhibitors of KSHV LANA-nucleosome binding, primary screen, biochemical, fluorescence polarization, FITC-LANA1-23, chicken nucleosomes. FITC-LANA1-23 / chicken nucleosome fluorescence polarization; hits give low values. z-score (test concentration not listed). hit rate 0.3% among 51,000;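 active = both repeat wells score below -2 in polarization z-score versus plate sample wells, excluding overly bright wells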;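 note: 100 nL library stock added to about 30 µL; numbers are from one replicate; some results filed as inactive read as strong as hits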
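Material: Purified chicken nucleosomes with FITC-labelled LANA N-terminal peptide (1-23) | Reagent: 50 nM FITC-LANA1-23 probe | Medium: TEN-BT buffer, pH 7.5 | Times: 10–45 min incubation at room temperature | Detection: Fluorescence polarization | Replication: Duplicates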
An asterisk follows results filed as active; nt = not tested or not shown; & = joins results of further samples. The list is partial; rates above refer to the full screens.

Values run as follows: BasE inh, KSHV LANA nucl
1: C=CCn1c(CSc2ccc(C)cc2)n[nH]c1=S
  1.0, -0.47
2: C(=N\OCc1nnc(-c2ccc3ccccc3c2)o1)/c1cccc2c1OCO2
  -0.5, 0.46
3: Cc1ccc(S(=O)(=O)N(C)CC(=O)Nc2ccccc2C(F)(F)F)cc1
  -1.4, 0.32
4: CC(C)CNS(=O)(=O)c1ccccc1C(=O)N1CCCCC1
  1.5, nt
5: O=C(COC(=O)c1c(-n2cccc2)sc2c1CCCC2)Nc1ccc(F)cc1
  2.2, nt
6: O=C(O)CC1(CC(=O)Nc2ccc(N3CCCCC3)cc2)CCCCC1
  nt, 0.63
7: Cc1c(C(=O)/C=C/N(C)C)sc2ccccc12
  0.1, 0.39
8: O=c1nc2sc3[nH]c(=O)sc3cc-2s1
  0.4, -9
9: O=C(CCc1nc2cccnc2n1-c1ccccc1)NCc1ccc(CN2CCOCC2)o1
  -0.2, 0.48
10: O=C(/C=C/Sc1nc2cc(Cl)ccc2s1)c1ccc(F)cc1
  -1.7, nt
11: Nc1nc(C2CC(=O)OC23CCCCC3)cs1 (stereo not given)
  0.9, -0.87
12: O=C(Cn1ccc2ccccc2c1=O)NC1CCCCCC1
  -0.4, -0.038
13: CCN(Cc1ccncc1)C(=O)C1CCCO1 (stereo not given)
  0.2, 0.19
14: CC(C)(C)CC(C)(C)NCc1ccccc1OCC(N)=O
  -3.5, 0.18
15: C=CCNC(=O)COc1ccc(C(C)C)cc1
  1.4, nt
16: CCn1c(CCC(=O)O)nc2cc(S(N)(=O)=O)ccc21
  3.0, nt
17: O=C(O)C1CCN(C(=O)c2ccc(-c3ccccc3)cc2)CC1
  0.1, -1.1
18: Cc1cc(/C=C2/C(=N)N3C(=NC2=O)SN=C3S(=O)(=O)C(C)C)c(C)n1Cc1ccccc1
  14, -0.59
19: C=CCn1c(SC(C)C(=O)NC(N)=O)nnc1-c1occc1C (stereo not given)
  2.9, nt
20: CCOc1ccccc1C(=O)N1CCN(C(=O)c2ccccc2)CC1
  2.2, nt
21: COc1ccccc1OCc1nc(C#N)c(NCCCn2ccnc2)o1
  2.3, 0.38
22: Cc1onc(-c2c(F)cccc2Cl)c1C(=O)NC(=S)NC1CCSC1=O (stereo not given)
  -9.4, nt
23: O=S1(=O)CCC(N=Cc2ccc(-c3ccc(Br)cc3)o2)C1 (stereo not given)
  -2.1, -0.33
24: Cn1/c(=N\NC(=O)C2CCCCC2)sc2ccccc21
  0.1, -0.39
25: O=C(N/N=C1/C(=O)c2cccc3cccc1c23)c1ccc2c(c1)OCO2
  7.5, nt
26: CC(Cc1c[nH]c2ccccc12)NC(=O)c1ccco1 (stereo not given)
  1.9, nt
27: Cc1ccc(OCCn2cccc2/C=C2/C(=N)N3C(c4ccccc4)=CSC3=NC2=O)cc1
  1.4, -0.97
28: O=C(Cc1ccc2c(c1)OCCO2)Nc1ccccc1C(F)(F)F
  0.1, nt
29: COCCN(C(C)=O)c1nnc(-c2cccnc2)s1
  1.4, -0.55
30: CC(C)C(NC(=O)c1ccc(Cl)cc1)C(=O)Nc1cccc(-n2cnnn2)c1 (stereo not given)
  1.7, nt
31: COc1ccccc1C1C(C(=O)OCC(N)=O)CCC(=O)N1c1ccc(C)cc1 (stereo not given)
  -0.2, nt
32: Cc1ccc(CNC(=O)c2cnn(-c3ccccc3)c2-n2cccc2)cc1
  0.8, 0.18
33: COc1ccc(CN(C)C(=O)C2CC3C=CC2C3)c(OC)c1 (stereo not given)
  0.1, nt
34: O=C1C2C3CC4C1C1C2CC3C41 (stereo not given)
  3.6, nt
35: CC(=O)Nc1sc(C)c(C)c1C(=O)OCC(=O)c1cc(C)n(C)c1C
  2.5, nt
36: Cc1cc2nnc(SCc3ccc(Cl)cc3)n2c2ccccc12
  1.4, nt
37: CCCN(CCC)C(=O)c1cc(-c2ccc3c(c2)OCO3)nc2ccccc12
  0.3, -0.17
38: CCc1nnc2c(NCC3CCCN3CC)nc3ccccc3n12 (stereo not given)
  0.5, nt
39: CCCN1Cc2cccc(C(=O)N3CCN(c4ccc(OC)cc4)CC3)c2C1=O
  1.4, -0.41
40: COc1ccc(-n2c(SCc3ccc(C#N)cc3)nc3ccccc32)cc1
  -2.4, nt

One compound at a time, from the list above. Order of values: BasE inh, KSHV LANA nucl
Listed for `CCOc1ccccc1C(=O)N1CCN(C(=O)c2ccccc2)CC1` = 2.2, nt
Listed for `O=c1nc2sc3[nH]c(=O)sc3cc-2s1` = 0.4, -9
Listed for `COc1ccccc1OCc1nc(C#N)c(NCCCn2ccnc2)o1` = 2.3, 0.38
Listed for `Cc1cc(/C=C2/C(=N)N3C(=NC2=O)SN=C3S(=O)(=O)C(C)C)c(C)n1Cc1ccccc1` = 14, -0.59
Listed for `C=CCNC(=O)COc1ccc(C(C)C)cc1` = 1.4, nt

Next section
Values run as follows: BasE inh, KSHV LANA nucl
41: CCc1cc2c3c(c(=O)oc2cc1OCC(=O)O)CCCC3
  1.6, -0.19
42: Cc1ccc2ncc(-c3ccc4cc(C)ccc4n3)cc2c1
  0.4, nt
43: COc1ccc(S(=O)(=O)N2CCN(C(=S)NC3CCCCC3)CC2)cc1
  -1.1, -0.35
44: CCOC(=O)c1c(NC(=S)Nn2cnnc2)sc2c1CCCCCC2
  4.5, -0.84
45: C=CCN(Cc1cc(=O)n2ccsc2n1)S(=O)(=O)c1ccc(Cl)cc1
  2.5, nt
46: N#C/C(=C\O)c1ccc(Cl)cc1Cl
  nt, -0.71
47: COc1cccc2c1C(=O)C1C(O)=C3C(=C(O)C1C2=O)C[C@@](O)(C(=O)CO)C[C@@H]3OC1CC(N)C(O)C(C)O1 (stereo not given in full)
  16, -1.8
48: CCOc1ccc(/C=N/n2c(C)csc2=Nc2ccc(C)cc2)c(O)c1
  0.3, nt
49: N#CC(C#N)=C1C=C2C=C(NCc3ccccc3)CCC2CC1 (stereo not given)
  17, nt
50: COc1ccccc1CNC(=O)CN1CCc2ccccc2C1
  1.4, nt
51: CN1C(=O)C(O)N(c2ccc(Cl)c(Cl)c2)C1=O (stereo not given)
  -2.5, -0.9
52: Cc1ccc(-c2noc(COC(=O)CCC(=O)c3ccc(Cl)s3)n2)cc1
  2.1, nt
53: O=C(CSC1=Nc2ccccc2C2CC=NN12)Nc1ccc2c(c1)CCC2 (stereo not given)
  3.8, nt
54: CCCCN(C(=O)c1c(C)oc2ncn(C)c(=O)c12)C1CCN(C(C)=O)CC1
  -23, nt
55: O=C(Nc1ccc(N2C(=O)Nc3ccccc3N2O)cc1)c1ccco1
  0.9, 0.22
56: COc1ccc(NC(=O)c2coc(C)c2)cc1
  -0.5, 0.76
57: CC(NC(=O)C12CC3CC(CC(C3)C1)C2)C(=O)NC1CCCCC1 (stereo not given)
  0.0, -0.47
58: CCN1CCN(C(=O)C2=CC(c3ccc(F)cc3)=NS(=O)(=O)N2C)CC1
  0.4, -0.75
59: COc1ccc(Nc2nc(Cl)nc(NCCO)n2)cc1
  0.6, -0.75
60: CC(CS(=O)(=O)c1ccccc1)N1CCOCC1 (stereo not given)
  1.4, 0.12
61: C=C1c2c(Cl)ccc(O)c2C(O)=C2C(=O)[C@]3(O)C(O)=C(C(N)=O)C(=O)[C@@H](N(C)C)[C@@H]3[C@@H](O)[C@H]12
  -1.6&1.9, -0.33&-0.082&0.6
62: COc1ccc(-c2oc(N(C(=O)c3cccs3)C(=O)c3cccs3)c(C#N)c2-c2ccc(OC)cc2)cc1
  14, nt
63: CC(C)c1ccc(N=C2CC(=O)NN2)cc1
  1.3, nt
64: Cc1cccc(OCCn2c(SCCC(=O)O)nc3ccccc32)c1
  1.0, 1.1
65: FC(F)(F)COc1ccc(-c2nc(-c3ccc(Cl)cc3)cs2)cn1
  -0.9, nt
66: Cc1cc(NO)nc(-c2ccc(Br)cc2)n1
  -1.6, 0.15
67: CN(Cc1ccc(Cl)s1)Cn1cnnc1C#N
  0.2, nt
68: CN1CCc2ccccc2C1Cc1ccccc1NS(=O)(=O)c1cc(Cl)c(Cl)cc1Cl (stereo not given)
  nt, -0.23
69: Cc1noc(C)c1-c1nc(CN2C(=O)c3ccccc3S2(=O)=O)no1
  1.7, nt
70: C=CCNC(=O)c1cccc(Br)c1
  1.6, 0.1
71: COC(=O)c1sccc1S(=O)(=O)N1CCC2(CC1)OCCO2
  1.3, 0.26
72: Nc1ccc(C(=O)Nc2ccccc2)cc1
  -2.3, 0.67
73: Cc1sc2nc(CSC(C)C(=O)NC3(C#N)CCCCC3)[nH]c(=O)c2c1C (stereo not given)
  -2.8, nt
74: COc1cccc(/C=N\N2CCN(c3ccccc3OC)CC2)c1
  1.3, 0.12
75: CCCCC(=O)Nc1ccc(C(=O)NCc2cccnc2)cc1
  -1.9, -1.1
76: Cc1ccc(C)c(C(=O)CSc2nnc(-c3cccc(S(=O)(=O)N4CCOCC4)c3)o2)c1
  -2.4, nt
77: Cc1ccc(N(CCO)S(=O)(=O)c2ccc(NC3=NS(=O)(=O)c4ccccc43)cc2)cc1
  1.5, 0.56
78: C=CCOc1ccc(C(=O)NCC)cc1
  0.6, 0.35
79: COc1ccc(CCN2C(=O)CC(=O)NC2=S)cc1OC
  6.7, nt
80: O=c1[nH]nc(SCc2ccc(CSc3n[nH]c(=O)[nH]c3=O)cc2)c(=O)[nH]1
  3.3, nt

Of the compounds above, 3 contain bromine.
Values run as follows: BasE inh, KSHV LANA nucl
23: O=S1(=O)CCC(N=Cc2ccc(-c3ccc(Br)cc3)o2)C1 (stereo not given)
  -2.1, -0.33
66: Cc1cc(NO)nc(-c2ccc(Br)cc2)n1
  -1.6, 0.15
70: C=CCNC(=O)c1cccc(Br)c1
  1.6, 0.1

(cont.)
Values run as follows: BasE inh, KSHV LANA nucl
81: C=CC(c1ccccc1)C(C(=O)c1ccccc1)N(C)C (stereo not given)
  -2.3, 0.15
82: O=C(C1CCCO1)N1CCN(C(=S)NCc2ccc(F)cc2)CC1 (stereo not given)
  2.5, -0.89
83: OC1CCN(Cc2ccccc2)CC1
  0.5, nt
84: CCn1nc(C)cc1C(=O)Sc1ccccc1Cl
  -0.3, nt
85: Cc1ccc(N/C(N)=N/c2nc(C(F)(F)F)cc(C(F)(F)F)n2)cc1
  2.6, nt
86: C=CCN(CC=C)C(=O)Nc1c(C)cc(C)c2c1CC(C)(C)C2=O
  nt, 0.18
87: O=C(COc1c(Br)cc(Br)c2cccnc12)N1CCNC1=O
  -0.2, nt
88: NNC(=O)Cc1csc(CC(N)=O)n1
  2.3, -1.7
89: CCCc1nc2ccccc2c(C(=O)OCC(=O)NC)c1CC
  -0.5, nt
90: C[C@]12CCC(=O)C=C1C=CC1C2CC[C@@]2(C)C1CC[C@@]21CCC(=O)O1 (stereo not given in full)
  -0.6, 0.28&0.012
91: Oc1ccc(Br)cc1C=Nc1ccc2[nH]ncc2c1
  0.2, -0.53
92: CC1(C(=O)NC2CCCCC2)Cc2ccccc2C(=O)N1Cc1cccnc1 (stereo not given)
  2.6, -0.12
93: COCCN1C(=O)C(C)SC1c1ccc(Br)cc1 (stereo not given)
  1.6, nt
94: CCOc1ccc(CN(Cc2ccco2)C(c2ccc(C(F)(F)F)cc2)c2nnnn2CCOC)cc1 (stereo not given)
  -0.6, -0.24
95: CCCc1n[nH]c(=S)n1N
  -1.7, -0.62
96: O=C(Nc1ccccc1C(=O)OCC(=O)N1CCOCC1)c1ccco1
  2.0, nt
97: CCOc1nc(NC)nc(N(C#N)CN2C(=O)c3ccccc3C2=O)n1
  1.1, 0.63
98: COc1cccc(NC(=O)CN(C)CC(=O)Nc2ccc3c(c2)CCC3)c1
  -1.4, nt
99: Nc1nnc(SCCCc2ccccc2)s1
  0.0, -1.2
100: CCCN(CCC)C(=O)CCc1ccccc1
  2.9, -0.66
101: CCCCn1nnnc1SCC(=O)c1cc(OC)ccc1OC
  -3.9, 0.016
102: O=C(NCc1cccs1)c1ccc2ncsc2c1
  1.1, nt
103: Cc1ccc2c(c1)c1c3n2CCN(CC#N)C3CCC1 (stereo not given)
  -0.3, 0.43
104: O=C(OCC(=O)N1N=C2/C(=C/c3ccco3)CCCC2C1c1ccco1)c1cccc(S(=O)(=O)N2CCOCC2)c1 (stereo not given)
  2.5, nt
105: Cc1ccc(N=Cc2cn(-c3ccccc3)nc2-c2ccccc2)cc1
  1.2, nt
106: CN(Cc1ccccc1)C(=O)c1cccc(N2C(=O)C3C4C=CC(C4)C3C2=O)c1 (stereo not given)
  1.7, -1.8
107: Cc1cc(C)cc(C(=O)Nc2ccc(-c3ccc(N4CCOCC4)nn3)cc2)c1
  -1.8, 1.6
108: O=C(/C=C/c1ccco1)Nc1ccccc1C(=O)OCC(=O)c1cccs1
  -0.1, nt
109: CNc1ccccc1C(C)(C)c1cc(-c2ccccc2C)no1
  -1.1, nt
110: COC(=O)C1=NNC(C(=O)OC)=NN1
  0.4, -0.068
111: CCOC(=O)c1cc(-c2ccc(F)cc2)n(CC(=O)N2CCn3c2nc2ccccc23)c1C
  0.2, -1.5
112: CC(C)c1nc2ccccc2n1CCc1ccccc1
  -1.9, nt
113: NNC(=O)CSc1nnc2c(n1)[nH]c1ccccc12
  1.4, nt
114: COC(=O)CC1SC(=O)NC1=S (stereo not given)
  32, -5.2*
115: COCC(=O)N(Cc1ccccc1)c1ccccn1
  0.0, -0.37
116: O=C(Nc1cccc(C(F)(F)F)c1)/C(=C\c1cccs1)c1ccsc1
  -0.3, nt
117: O=C1/C(=C\c2cccs2)N=C(c2ccccc2)N1Cc1ccc(Cl)cc1
  0.6, nt
118: CCc1cc2c(NCC3CCCO3)ncnc2s1 (stereo not given)
  0.0, 0.59
119: CCOC(=O)/C(C)=N/Nc1ccc(OC(F)(F)F)cc1
  -1.0, 0.26
